Compound activity deposited in PubChem BioAssay by ICCB-Longwood Screening Facility, Harvard Medical School.
Mtb MenB inh = inhibitors of Mycobacterium tuberculosis MenB enzyme; actives 0.43% (n = 100,000); inhibition, %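 (about 12 µg/mL by stock and volumes)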; MenB enzyme assay, absorbance read-out; some hits fall short of the stated cut; P9WNP5;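 active = mean of two replicates above 30%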;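 also: 0% = no compound and 100% = wells with inactive enzyme; the first replicate is given; strong numbers were not always called active; inactives centre near -10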
Polio RdRp inh = inhibitors of poliovirus RNA polymerase binding and polymerization; P03300; poliovirus polymerase elongation, fluorescence polarization; active compounds read low; % elongation, % (compound at 16.7 µg/mL); actives 0.66% (n = 150,000); AID 588519; in the data active = % elongation below about 90%; also: some results filed as inactive read as strong as hits
Target sequence (P03300 1749-2209 limits assumed): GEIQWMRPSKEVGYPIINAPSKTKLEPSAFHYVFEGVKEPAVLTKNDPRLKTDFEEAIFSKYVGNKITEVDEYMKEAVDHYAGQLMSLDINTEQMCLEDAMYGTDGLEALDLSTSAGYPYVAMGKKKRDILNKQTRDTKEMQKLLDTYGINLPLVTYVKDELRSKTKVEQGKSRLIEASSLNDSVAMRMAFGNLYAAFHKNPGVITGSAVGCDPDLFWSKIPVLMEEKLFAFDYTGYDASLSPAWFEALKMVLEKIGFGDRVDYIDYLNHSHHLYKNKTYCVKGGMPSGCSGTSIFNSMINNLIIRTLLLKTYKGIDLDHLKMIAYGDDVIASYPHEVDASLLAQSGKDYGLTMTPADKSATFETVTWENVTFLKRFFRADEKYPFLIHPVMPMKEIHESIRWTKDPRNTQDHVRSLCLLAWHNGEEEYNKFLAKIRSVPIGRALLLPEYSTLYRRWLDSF
Mtb MbtI inh = blocks the Mycobacterium tuberculosis siderophore enzyme MbtI; AID 493033; actives 0.89% (n = 100,000); P9WFX0; inhibition, %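 (about 17 µg/mL by stock and volumes)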; purified MbtI enzyme, fluorescence intensity read-out;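 active = above 50% in both replicates, above 80% if mildly self-fluorescent; inactive = the rest, strongly fluorescent compounds included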;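 also: 0% = mean of negative and 100% = mean of positive controls; one replicate is shown; some compounds called inactive have numbers as strong as hits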
Polio RdRp inh intensity = recorded beside Polio RdRp inh, whose call it bears; % elongation; measured here: total intensity read-out; formula for this scale not given here;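 total fluorescence in place of polarization; lower means less elongation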
Active calls of the source: *; x = no result given.

The line under a structure holds: Mtb MenB inh | Polio RdRp inh | Polio RdRp inh intensity | Mtb MbtI inh
CCCOC(=O)C[n+]1cn(CC)c2ccccc21
  x | 104.0 | 100.0 | -7.4
CCOC(=O)c1oc2ccc(Br)cc2c1CSc1nnc2ccccn12
  -6.1 | 103.0 | 108.0 | 12.7
CC1CC(C)CN(C(=O)c2cc3c(s2)CCC3)C1 (stereo unspecified)
  8.7 | 98.0 | 103.0 | 37.0
CCOC(=O)CSc1ccc2nnc(CCNS(=O)(=O)c3ccc(C)cc3)n2n1
  -5.8 | 102.0 | 103.0 | -21.5
Cn1c(SCC(=O)NCCN2C(=O)CSC2=S)nnc1C(F)(F)F
  -21.8 | 99.0 | 102.0 | 9.4
COC(=O)/C=C/S(=O)(=O)c1ccc(NC(C)=O)cc1
  -12.4 | 104.0 | 107.0 | 67.0*
Oc1ccc(-c2cn3ccsc3n2)cc1
  x | 102.0 | 97.0 | -13.8
S=C(NCCc1ccccc1)NC1CC1
  3.3 | 100.0 | 99.0 | -2.1
O=C(NCCc1ccccc1)C1CCCN(c2nnc(-n3cccc3)s2)C1 (stereo unspecified)
  -22.5 | 103.0 | 104.0 | -2.8
CCOC(=O)C1=C(CSc2n[nH]c(COc3ccc(C)cc3)n2)NC(=O)NC1C (stereo unspecified)
  -13.3 | 92.0 | 95.0 | -2.4
COc1cc(C(=O)Nc2ccccc2C(=O)N2CCCCC2)cc(OC)c1OC
  -11.2 | 101.0 | 105.0 | -5.4
CC(C)Cn1c(-c2ccco2)csc1=Nc1cccnc1
  -19.3 | 112.0 | 117.0 | 72.0
CCOC(=O)c1cc(CC)sc1NC(=O)CC1Nc2ccccc2NC1=O (stereo unspecified)
  -12.6 | 119.0 | 114.0 | x
N#Cc1ccc(NC(=O)C2CCC(C(=O)Nc3ccc(C#N)cc3)CC2)cc1 (stereo unspecified)
  -1.1 | 101.0 | 100.0 | -20.8
CCc1nn(CC(=O)NCCc2ccc(S(N)(=O)=O)cc2)c(=O)c2cc3sccc3n12
  -1.4 | 101.0 | 103.0 | -4.6
CC(C)CCNC(=O)c1cc(=O)c2ccccc2o1
  -12.3 | 104.0 | 94.0 | -3.5
Cn1ccnc1-c1nc2ccccc2n(CC(=O)OCc2ccc(C#N)cc2)c1=O
  -47.7 | 99.0 | 102.0 | -8.7
O=c1cc[nH]cc1-c1ccc(Cl)cc1
  -1.2 | 102.0 | 105.0 | 17.2
CN(C)/C=C1\C(=O)N(c2ccc(F)cc2F)C(c2cccnc2)S1(=O)=O (stereo unspecified)
  -3.9 | 99.0 | 98.0 | -4.8
CC(C)(C)c1cc(N)n(-c2ccc(Br)cc2)n1
  -23.6 | 101.0 | 104.0 | -0.1

An excerpt from above in order of length of the SMILES, lowest first:
The line under a structure holds: Mtb MenB inh | Polio RdRp inh | Polio RdRp inh intensity | Mtb MbtI inh
CC(C)Cn1c(-c2ccco2)csc1=Nc1cccnc1
  -19.3 | 112.0 | 117.0 | 72.0
COc1cc(C(=O)Nc2ccccc2C(=O)N2CCCCC2)cc(OC)c1OC
  -11.2 | 101.0 | 105.0 | -5.4
CCOC(=O)CSc1ccc2nnc(CCNS(=O)(=O)c3ccc(C)cc3)n2n1
  -5.8 | 102.0 | 103.0 | -21.5

Part of the list above, reduced to Mtb MbtI inh and Polio RdRp inh:
smiles	Mtb MbtI inh	Polio RdRp inh
CC(C)Cn1c(-c2ccco2)csc1=Nc1cccnc1	72.0	112.0
COC(=O)/C=C/S(=O)(=O)c1ccc(NC(C)=O)cc1	67.0*	104.0
CC(C)(C)c1cc(N)n(-c2ccc(Br)cc2)n1	-0.1	101.0
CCc1nn(CC(=O)NCCc2ccc(S(N)(=O)=O)cc2)c(=O)c2cc3sccc3n12	-4.6	101.0

New compounds follow
The line under a structure holds: Mtb MenB inh | Polio RdRp inh | Polio RdRp inh intensity | Mtb MbtI inh
O=C(CN1C(=O)CSCC1=O)Nc1ccc(Cl)cc1
  -13.0 | 106.0 | 105.0 | 0.4
Cc1nnc(SC(C)C(=O)NC2CCCCC2)[nH]c1=O (stereo unspecified)
  16.5 | 101.0 | 102.0 | 8.1
CN(C)C1=Nc2ccccc2P1(O)=S (stereo unspecified)
  -22.7 | 102.0 | 93.0 | -1.2
Cc1ccc(Nc2nc(N)nc(CSc3ccc(F)c(Cl)c3)n2)cc1
  -18.0 | x | x | 8.3
Cc1ccccc1OCC1CN(CN2CCC(C)CC2)C(=O)O1 (stereo unspecified)
  -9.1 | 102.0 | 107.0 | -1.1
CCSc1nc2ccccc2n1CC(=O)NCc1ccc(OC)cc1
  x | 104.0 | 106.0 | -1.6
CC1CCN(C(=O)COC(=O)c2ccc3ccccc3n2)CC1
  x | 99.0 | 97.0 | -5.1
CCc1cc2c(=S)[nH]cnc2s1
  -50.3 | 111.0 | 106.0 | 81.2
CCC1CCC(NCC(C)(C)CN(C)C)CC1 (stereo unspecified)
  9.5 | 99.0 | 103.0 | 0.5
O=C(CCC(=O)c1ccc(Cl)s1)OCc1nc2ccccc2s1
  0.8 | 102.0 | 110.0 | 2.2
O=C(CSc1nnc(NC(=O)c2ccc(Cl)c(Cl)c2)s1)Nc1ccc(F)c(F)c1F
  -5.4 | 105.0 | 111.0 | 6.2
O=C(CSc1nc(-c2ccccc2)c(-c2ccccc2)o1)NCCN1C(=O)CSC1=O
  -8.4 | 102.0 | 96.0 | 106.8
O=CN(Cc1ccco1)C1(C(=O)NC2CCCCC2)CCCCC1
  18.5 | 104.0 | 102.0 | -4.5
CCN(CC)S(=O)(=O)c1ccc(Cl)c(C(=O)N2CCN(c3ncccn3)CC2)c1
  -4.2 | 109.0 | 117.0 | -17.2
O=C(O)c1cc(-c2ccccc2)n[nH]1
  -10.9 | 101.0 | 100.0 | 19.6
COC(=O)c1ccn(-c2nc(-c3ccco3)cc(C(F)(F)F)n2)n1
  -2.1 | 101.0 | 105.0 | 41.5
O=C1CC(c2ccco2)Cc2nc(NC3CC3)ncc21 (stereo unspecified)
  -16.5 | 103.0 | 101.0 | 13.4
Cc1ccc(Cn2c(C)c(CNC(C)CCc3ccccc3)c(C(=O)O)c2C)cc1 (stereo unspecified)
  -10.4 | 102.0 | 99.0 | 4.8
CN1CCN(c2c(N)c(=O)oc3ccccc23)CC1
  19.3 | 100.0 | 104.0 | 0.8
OC(Cn1nnc2ccccc21)c1ccccc1 (stereo unspecified)
  -27.2 | 103.0 | 104.0 | -3.5
COC(=O)C1CCN(C(c2ccc(F)cc2)c2ccc(F)cc2)CC1
  20.5* | 100.0 | 101.0 | 0.9
Cc1cccc(-n2cc(-c3cc4cc(Cl)ccc4oc3=O)[nH]c2=S)c1
  -49.8 | 105.0 | 110.0 | -157.6
Cc1cccc(N=Cc2c(Nc3cccc(C)c3)nc3ccccn3c2=O)c1
  -4.4 | 103.0 | 109.0 | -3.5
N#Cc1ccc(-n2nnc3ccccc32)cc1C#N
  -17.9 | 106.0 | 98.0 | x
CCOC(=O)c1ccccc1NC(=O)Cn1ncc2c1-c1cc(C)ccc1OC2
  -1.4 | 100.0 | 104.0 | -6.4
CCNC(=S)N1C2CCCC1CC(NC(=O)C1CC1)C2 (stereo unspecified)
  -30.9 | 106.0 | 102.0 | -5.4
Cc1ccc(C(=O)n2ncn(C)c2=S)cc1
  -8.1 | 95.0 | 101.0 | -10.9
CC(C)(C)c1ccc(O)c(N)c1
  -23.1 | 98.0 | 104.0 | 99.3*

Entries listed so far containing a tert-butyl group (2):
The line under a structure holds: Mtb MenB inh | Polio RdRp inh | Polio RdRp inh intensity | Mtb MbtI inh
CC(C)(C)c1cc(N)n(-c2ccc(Br)cc2)n1
  -23.6 | 101.0 | 104.0 | -0.1
CC(C)(C)c1ccc(O)c(N)c1
  -23.1 | 98.0 | 104.0 | 99.3*

One compound at a time, from the list above:
Shown for O=C1CC(c2ccco2)Cc2nc(NC3CC3)ncc21 (stereo unspecified) = Mtb MenB inh: -16.5; Polio RdRp inh: 103.0; Polio RdRp inh intensity: 101.0; Mtb MbtI inh: 13.4
Shown for CCOC(=O)CSc1ccc2nnc(CCNS(=O)(=O)c3ccc(C)cc3)n2n1 = Mtb MenB inh: -5.8; Polio RdRp inh: 102.0; Polio RdRp inh intensity: 103.0; Mtb MbtI inh: -21.5
